Screens: PubChem, several laboratories
Mtb H37Rv – M. tuberculosis H37Rv growth inhibitors, H37Rv strain (AID 1626). M. tuberculosis H37Rv growth inhibition; higher % means a stronger effect. inhibition, % at 10 µM; hits with a dose series show IC50 in µM. hit rate 0.95% among 220,000;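 active = confirmed in a dose series; inconclusive = inhibition above 80% but not taken into the dose series; inactive = below 80% or under 30% at every dose of the series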;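 note: bacteria incubated seven days before Alamar blue readout; 0% = bacteria only wells and 100% = bacteria with antibiotic wells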
YopH PTP inh – YopH tyrosine phosphatase inhibitors, primary screen, biochemical, fluorescence Ex485/Em525. inhibition, %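 (about 10 µM by stock and volumes)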. hit rate 0.16% among 140,000. AID 898, 2007. YopH tyrosine phosphatase [Yersinia enterocolitica];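 active = inhibition of 50% or more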;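 note: controls were vehicle for no effect and minimum signal wells for full effect; inactives centre near -20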
RecA intein inh – Mtb RecA intein splicing inhibitors, primary screen, biochemical, fluorescence, HTS | Protein RecA (Mycobacterium tuberculosis (strain ATCC 25618 / H37Rv)), P9WHJ3 | cell-free RecA intein splicing | inhibition, %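 (about 9 µM by stock and volumes)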 | hit rate 0.75% among 290,000 | AID 2221, 2009; in the data active = inhibition above about 30%; inconclusive = no clear call, values can overlap the other calls;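 note: 0% = vehicle wells and 100% = reference inhibitor control wells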
Target sequence (P9WHJ3 whole entry, looked up): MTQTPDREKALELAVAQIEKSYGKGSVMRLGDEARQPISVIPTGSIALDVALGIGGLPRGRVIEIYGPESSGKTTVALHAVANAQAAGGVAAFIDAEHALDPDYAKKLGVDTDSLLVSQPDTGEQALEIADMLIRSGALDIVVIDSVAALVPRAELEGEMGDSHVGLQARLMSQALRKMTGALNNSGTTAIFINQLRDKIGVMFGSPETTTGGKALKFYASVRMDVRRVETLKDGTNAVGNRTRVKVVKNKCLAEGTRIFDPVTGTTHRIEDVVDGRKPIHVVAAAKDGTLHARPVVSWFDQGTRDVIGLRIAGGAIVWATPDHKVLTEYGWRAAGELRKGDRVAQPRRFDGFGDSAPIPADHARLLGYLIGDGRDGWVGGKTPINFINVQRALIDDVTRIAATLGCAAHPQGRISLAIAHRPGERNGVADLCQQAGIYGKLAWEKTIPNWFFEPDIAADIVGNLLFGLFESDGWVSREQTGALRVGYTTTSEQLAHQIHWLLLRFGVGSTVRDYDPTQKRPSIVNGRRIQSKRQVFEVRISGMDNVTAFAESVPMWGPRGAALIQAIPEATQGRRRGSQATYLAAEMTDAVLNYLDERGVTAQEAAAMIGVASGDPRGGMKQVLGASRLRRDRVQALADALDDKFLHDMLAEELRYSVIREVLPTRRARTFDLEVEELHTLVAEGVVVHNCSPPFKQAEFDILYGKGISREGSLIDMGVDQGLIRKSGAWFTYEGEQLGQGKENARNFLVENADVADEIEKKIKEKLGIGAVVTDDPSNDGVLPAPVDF
Mtb bLac sens – beta-lactam sensitization of Mtb H37Rv, H37Rv; hit rate 0.27% among 330,000; inhibition, % at 25 µM; M. tuberculosis H37Rv growth with meropenem, percent inhibition; hits of this screen are not shown here;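 active = about 74% or more and at least 40 points above the plate without the antibiotic, then above 30% in a dose series; inconclusive = first-round hits that could not be retested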;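 note: growth measured after seven days incubation then overnight dye step; 0% = bacteria only wells and 100% = bacteria with antibiotic; twin plates without the antibiotic show which effects depend on it; some results filed as inactive read as strong as hits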
Arbovirus inh – antivirals against arbovirus infection, primary screen, cell-based, full library, 10K replicate subset; arbovirus infection cell-based antiviral screen; inhibition, % at 10 µM; hit rate 0.37% among 200,000; AID 1251, 2008;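 active = inhibition from about 30%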;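 note: bluetongue infection of BSR cells; cell survival read as ATP light after 72 h; 0% = infected wells without compound and 100% = uninfected wells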
Arbovirus inh repeat – recorded beside Arbovirus inh, whose call it bears; inhibition, %; measured here: 10K subset replicate screen; many hits read low in the repeat;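 first of two repeat runs on a subset; 0% = infected and 100% = uninfected wells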
Starred values were filed as active, the others as inactive.

For Cn1c(SCc2ccccc2)nc2ccsc2c1=O the results were Mtb H37Rv 11.5%, RecA intein inh 7.0, Mtb bLac sens 5.6 and Arbovirus inh -12.6.
O=c1ccc(=O)n2n1CC(O)C2 was read as Mtb H37Rv -5.6%, YopH PTP inh -20.5, RecA intein inh -2.2, Mtb bLac sens -7.2 and Arbovirus inh -2.4.
Screening Cn1c(SCC(=O)N2CCN(c3ccccc3)CC2)nnc1-c1c[nH]c2ccccc12 returned Mtb H37Rv 1.6%, RecA intein inh 9.9, Mtb bLac sens 4.5 and Arbovirus inh -11.0.
Nc1cnn(C2CCCO2)c(=O)n1 (stereo not given) was read as Mtb H37Rv -6.5%, YopH PTP inh -43.0, RecA intein inh 5.3, Mtb bLac sens 12.7 and Arbovirus inh 1.1.
Screening CCOc1cc(NC(=S)NCCCN(C)C)c(OCC)cc1NC(=O)C1CC1 returned Mtb H37Rv -1.6%, RecA intein inh -6.0, Mtb bLac sens -9.4 and Arbovirus inh 5.6.
Cc1cccc(C(=O)OCC(=O)Nc2ccc(N3CCCCC3)cc2)c1O was read as Mtb H37Rv 0.0%, YopH PTP inh -1.6, RecA intein inh -3.3, Mtb bLac sens 6.9 and Arbovirus inh 1.6.
For COC(=O)Cc1ccc2oc(-c3cccnc3)nc2c1 the results were Mtb H37Rv 0.9%, RecA intein inh -2.4, Mtb bLac sens 5.3 and Arbovirus inh 6.0.
For CCC(C)Sc1ccc(-c2nc3ccc(C)cn3c2NC2CCCCC2)cc1 (stereo not given) the results were RecA intein inh 10.1 and Mtb bLac sens 4.7.
Screening COCCn1c(C)cc(C(=O)COC(=O)c2ccc3c(c2)NC(=O)CS3)c1C returned Mtb H37Rv 3.8%, YopH PTP inh -3.9, RecA intein inh 3.3, Mtb bLac sens -4.4 and Arbovirus inh 2.4.
Screening O=C(NCCCN1CCOCC1)c1cc(-c2ccc(Br)cc2)on1 returned Mtb H37Rv -2.6%, YopH PTP inh -38.3, RecA intein inh -1.1, Mtb bLac sens 0.8 and Arbovirus inh 3.4.
Screening CCOc1ccccc1-n1c(SCC(N)=O)nc2ccccc2c1=O returned Mtb H37Rv 8.4%, YopH PTP inh -18.8, RecA intein inh -0.6 and Arbovirus inh 2.0.
Screening CSc1nsc(SCc2cnc(C)nc2N)n1 returned Mtb H37Rv -6.4%, YopH PTP inh -13.3, RecA intein inh 1.9, Mtb bLac sens 6.1 and Arbovirus inh -2.9.
Cc1ccc2c(C)c(C(=O)N(Cc3cccs3)C3CCS(=O)(=O)C3)oc2c1 (stereo not given) was read as Mtb H37Rv 3.1%, YopH PTP inh -20.8, RecA intein inh 4.0, Mtb bLac sens -9.2 and Arbovirus inh 6.0.
CNc1nc(N)c([N+](=O)[O-])c(NCc2ccccc2)n1 was read as Mtb H37Rv 3.9%, YopH PTP inh -33.8, RecA intein inh -5.3, Mtb bLac sens -0.6 and Arbovirus inh 6.0.
COCC(C)N=C1SCCN1Cc1ccccc1 (stereo not given) was read as RecA intein inh -10.2 and Mtb bLac sens 0.0.
For S=C(Nc1ccccc1)N(Cc1ccccc1)Cc1ccncc1 the results were Mtb H37Rv -0.5%, RecA intein inh -0.5, Mtb bLac sens -3.2 and Arbovirus inh 6.3.
For CC(C)Cc1nnc(NC(=O)CCC(=O)N2CCC(C)CC2)s1 the results were RecA intein inh -0.5 and Mtb bLac sens 2.8.
O=C(O)C1CCCCC1C(=O)Nc1nccs1 (stereo not given) was read as Mtb H37Rv -0.1%, YopH PTP inh -21.4, RecA intein inh 0.3, Mtb bLac sens -7.0 and Arbovirus inh -1.6.
For O=C(O)CC(Cn1[nH]nnc1=S)c1ccccc1 (stereo not given) the results were Mtb H37Rv -8.8%, YopH PTP inh -22.9, RecA intein inh -0.4, Mtb bLac sens -15.7 and Arbovirus inh -1.6.
`Cc1cc(C)c2c(c1)cc(C)c1nnc(SCC(=O)Nc3ccccc3N3CCOCC3)n12` gave Mtb H37Rv 0.8%, YopH PTP inh -39.7, RecA intein inh 2.3, Mtb bLac sens 5.5 and Arbovirus inh -0.3.
CC(C)(O)C#Cc1ccc(C(=O)NC(CCCNC(N)=O)C(=O)O)s1 (stereo not given) was read as Mtb H37Rv 2.5%, RecA intein inh -1.4, Mtb bLac sens -0.7 and Arbovirus inh 6.1.
Screening NC(=O)CC(NC(=O)c1cccc(Br)c1)c1ccc(NCC2CC2)c([N+](=O)[O-])c1 (stereo not given) returned RecA intein inh -1.7 and Mtb bLac sens -1.0.
Screening O=C(CNC(=O)c1ccc(Cl)cc1Cl)OCc1nc2ccccc2s1 returned Mtb H37Rv -5.4%, YopH PTP inh -14.1, RecA intein inh 0.4, Mtb bLac sens 2.6 and Arbovirus inh 3.6.
Screening CC1(C)COCN1C(=O)c1ccc(Cl)c(Cl)c1 returned Mtb H37Rv 5.2%, RecA intein inh -0.2, Mtb bLac sens 1.7 and Arbovirus inh 5.1.
Screening CCC(=O)n1nc(-c2cccnc2)nc1NCc1ccc(F)cc1 returned Mtb H37Rv 9.5%, RecA intein inh -3.2, Mtb bLac sens 9.4 and Arbovirus inh -5.2.
`C[C@@H](O)C1NC(=O)[C@H](CCCCN)NC(=O)c2cc([N+](=O)[O-])cc(F)c2NCCCC[C@@H](C(N)=O)NC1=O` (stereo not given in full) gave Mtb H37Rv -10.4%, YopH PTP inh 3.7, RecA intein inh -0.3, Mtb bLac sens -6.7 and Arbovirus inh 0.8.
Screening Cn1cc(SCC(=O)O)c2ccccc21 returned Mtb H37Rv -4.8%, YopH PTP inh -1.9, RecA intein inh 0.2, Mtb bLac sens -8.5 and Arbovirus inh -1.2.
Screening COc1ccc(C(=O)COc2ccc3ccc(=O)oc3c2)cc1 returned Mtb H37Rv 2.4%, RecA intein inh 0.5 and Mtb bLac sens 0.9.
For N#Cc1c(NC(=O)CSc2ncccn2)oc(-c2ccccc2)c1-c1ccccc1 the results were Mtb H37Rv -15.2%, YopH PTP inh -27.9, RecA intein inh 11.3 and Mtb bLac sens -2.2.
Screening CC(C)(C)c1ccc(CN2N=C(/C=C/c3ccccc3)CCC2=O)cc1 returned Mtb H37Rv -4.9%, RecA intein inh 8.4, Mtb bLac sens -4.4 and Arbovirus inh -11.9.
O=C(CCCN1C(=O)c2ccccc2C1=O)N1CCCCC1 was read as Mtb H37Rv -6.7%, YopH PTP inh -0.6, RecA intein inh -0.3, Mtb bLac sens -9.9 and Arbovirus inh 4.8.
`CC(NC(=O)c1cccs1)C(c1cccs1)N1CCN(c2ccccc2)CC1` (stereo not given) gave Mtb H37Rv 0.5%, YopH PTP inh 28.0, RecA intein inh -1.3, Mtb bLac sens 2.2 and Arbovirus inh 1.9.
`C=C(C)Cn1c(-c2ccc(OC)cc2)nc2ccccc21` gave Mtb H37Rv 3.0%, YopH PTP inh -33.4, Mtb bLac sens 30.9 and Arbovirus inh 1.8.
`Cc1cnc(NC(=O)c2cc3c(s2)CCCC3)s1` gave Mtb H37Rv inconclusive, YopH PTP inh -10.1, RecA intein inh -4.6, Mtb bLac sens 99.2 and Arbovirus inh 3.2.
O=C(Cc1ccc([N+](=O)[O-])cc1)NCc1ccc2c(c1)OCO2 was read as Mtb H37Rv 14.7%, YopH PTP inh -19.5, RecA intein inh -2.3, Mtb bLac sens 2.0 and Arbovirus inh -4.0.
`Cc1ccc(NC(=S)NCCC2=CCCCC2)cc1` gave Mtb H37Rv 36.8%, RecA intein inh 2.0, Mtb bLac sens 0.2 and Arbovirus inh 15.5.
O=[N+]([O-])c1cc(Br)cc(/C=N/n2cnnc2)c1O was read as Mtb H37Rv -5.0%, RecA intein inh 5.1, Mtb bLac sens 10.4 and Arbovirus inh -4.1.
For Cc1c(C(=O)N2CCC3(CC2)OCCO3)oc2ccccc12 the results were Mtb H37Rv 10.2%, YopH PTP inh 3.5, RecA intein inh 0.1 and Arbovirus inh 1.8.
Screening Cc1ccccc1-n1c(-c2ccco2)nc2ccccc2c1=O returned Mtb H37Rv 4.3%, YopH PTP inh -9.5, RecA intein inh 0.4, Mtb bLac sens -1.3 and Arbovirus inh -11.1.
Screening CCOC(=O)C1CCCCN1Cc1ccc(-c2ccccc2)cc1 (stereo not given) returned RecA intein inh 5.6 and Mtb bLac sens -11.4.
O=c1c2cc(Br)ccc2nc(-c2ccc(Cl)cc2)n1O was read as RecA intein inh 1.1 and Mtb bLac sens 87.3.
`Cn1c(NC(=O)C2CCCC2)cc(=O)n(C)c1=O` gave Mtb H37Rv 2.9%, YopH PTP inh -27.8, RecA intein inh 0.4, Mtb bLac sens -4.8, Arbovirus inh -0.3 and Arbovirus inh repeat 5.6.
Screening O=C(CCN1C(=O)c2ccccc2C1=O)C1=NN[C@@H]2C(=O)N(c3cccc(Cl)c3)C(=O)[C@H]12 returned Mtb H37Rv 45.6%, YopH PTP inh -10.0, RecA intein inh -3.3, Mtb bLac sens 0.5 and Arbovirus inh 3.5.
For Cc1cc(-c2ccc(C(C)C)c(S(=O)(=O)N3CCOc4ccccc43)c2)on1 the results were RecA intein inh 3.9 and Mtb bLac sens 5.3.
For COc1ccc(CC(=O)Nc2ccc(-c3noc(-c4ccc(Cl)cc4)n3)cc2)cc1 the results were Mtb H37Rv 3.7%, YopH PTP inh -40.2, RecA intein inh -5.4, Mtb bLac sens -1.7 and Arbovirus inh -13.6.
Cc1ccc(F)cc1NC(=O)N1c2ccccc2NC(=O)CC1C (stereo not given) was read as Mtb H37Rv -7.7%, RecA intein inh -5.1 and Mtb bLac sens 0.5.
NC(N)=NN=C1c2ccccc2-c2ccccc21 was read as RecA intein inh -0.4 and Mtb bLac sens 3.5.
CCOC(=O)c1sc(/N=C/N(C)C)c(C(=O)OCC)c1C was read as Mtb H37Rv 1.6%, YopH PTP inh -27.5, RecA intein inh -0.6, Mtb bLac sens 7.4, Arbovirus inh 2.6 and Arbovirus inh repeat -11.6.
`O=C(COC(=O)CSc1ccc([N+](=O)[O-])cc1)NCCc1ccccc1` gave RecA intein inh -3.3 and Mtb bLac sens -11.7.
For CCCC1(C(=O)OCC)NC(c2ccc(O)cc2)C2C(=O)N(c3ccc4c(c3)OCCO4)C(=O)C21 (stereo not given) the results were Mtb H37Rv 11.1%, YopH PTP inh -18.0, RecA intein inh 2.0, Mtb bLac sens 5.8 and Arbovirus inh 6.8.
Screening O=C(Nc1ccc(Oc2cccnc2)cc1)C1CCN(Cc2ccccc2)CC1 returned RecA intein inh -1.1 and Mtb bLac sens 6.2.
Screening COC(=O)c1ccc(Cn2nc(-c3ccc(C)c(C)c3)ccc2=O)cc1 returned RecA intein inh 0.8 and Mtb bLac sens -1.0.
Screening CCOC(=O)Cc1csc(SCC(=O)NC2CCCC(C)C2C)n1 (stereo not given) returned Mtb H37Rv -2.2%, YopH PTP inh -23.2, RecA intein inh -7.8, Mtb bLac sens -1.4 and Arbovirus inh 4.4.
For O=C(c1ccc(S(=O)(=O)Nc2ccccc2)cc1)N1CCCC1 the results were RecA intein inh -5.2 and Mtb bLac sens -0.8.
For CC1(C)c2[nH]c3ccccc3c2C[C@@H]2C(=O)N(Cc3ccccc3F)C(=O)N21 the results were Mtb H37Rv 9.9%, RecA intein inh -4.0 and Mtb bLac sens 97.7.
`COc1ccccc1CN1CC(C(=O)NCCN(C)CCc2ccccc2)CCC1=O` (stereo not given) gave RecA intein inh -1.9 and Mtb bLac sens 4.2.
For Cc1ccc(OCCN2C(=O)c3ccccc3C2=O)c(C)c1 the results were Mtb H37Rv -5.2%, YopH PTP inh 2.1, RecA intein inh 2.1, Mtb bLac sens 2.6 and Arbovirus inh 1.6.
Cc1cc(C)c(S(=O)(=O)c2c(C)cccc2C)c(OCC(C)C)n1 was read as Mtb H37Rv -14.0%, YopH PTP inh -36.7, RecA intein inh 20.3, Mtb bLac sens -11.5 and Arbovirus inh -11.6.
Screening Cc1cc(Br)ccc1NC(=S)NC1CCCC1 returned RecA intein inh 2.5 and Mtb bLac sens -4.7.

Only part of the results is shown. The share of hits here may be higher or lower than overall.
